Screening results (PubChem BioAssay)
Bm FixLJ act = activators of Burkholderia fixLJ two-component system; B. multivorans fixK-promoter GFP reporter, 18 h; hits give high values; z-score (concentration not given with the values); hit rate 0.3% among 29,000;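 active means replicate mean overnight rise in green fluorescent reporter signal, 3 or more SD over negative controls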;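 further: score is relative to vehicle wells of the plate; 300 nL library stock went into each well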
* marks the source's active call; other numbers are inactive results; & = joins results of further samples. The list is partial. The share of hits here may be higher or lower than overall.

SMILES	Bm FixLJ act
COc1cccc(C2CC(=O)N(c3ccc(F)cc3)C3=C2C(=O)OC3)c1OC (stereo unspecified)	0.13
COc1ccccc1Nc1cc(C(=O)NCc2cccs2)c2ccccc2n1	-1
CCOc1ccc(N(Cc2cc3cc(C)ccc3[nH]c2=O)C(=O)c2cccc(Cl)c2)cc1	-0.3
COC(=O)COc1ccc(C2C(C(=O)OC)=C(C)NC3=C2C(=O)c2ccccc23)cc1OC (stereo unspecified)	0.65
CCNC(=O)c1ccc(NC(=O)CN2CCCC2)cc1Cl	-1.3
COc1cc(OC)c(NC(=O)Cn2ncn3c(cc4cc(C)ccc43)c2=O)cc1Cl	0.5
CCOC(=O)c1cnc2ccc(OCC)cc2c1N1CCN(c2ccccc2F)CC1	0.84
Cc1cc(C)n(C(C)CNC(=O)c2ccc(-c3ncccn3)cc2)n1 (stereo unspecified)	0.63
Cn1cncc1C(=O)N1CCC2(CC1)CN(C(=O)NC(C)(C)C)CCO2	0.3
Cc1nccn1CCN(C)C(=O)NC1CCN(Cc2ccccc2Cl)CC1	0.51
CN(Cc1cccc2ncccc12)C(=O)c1cccc(-c2ncc[nH]2)c1	-1.8
CC(=O)N1CC(=O)Nc2ccc(F)cc2C1c1ccccc1 (stereo unspecified)	-0.87
O=C(Cn1c(=O)c2ccccc2n2nncc12)Nc1cccc(F)c1	-1.4
COCCCn1c(=N)c(C(=O)NC2CCCC2)cc2c(=O)n3cccc(C)c3nc21	-0.18
Cc1ccc(NC(=O)CCc2nnc3n(CC(C)C)c(=O)c4ccccc4n23)cc1C	-0.94
COc1ccccc1CNC(=O)CCn1c(=O)c2ccccc2n(CC(=O)Nc2cccc(Cl)c2)c1=O	0.27
CN(C)c1nc2c(c(N3CC(O)C(Cc4ccncc4)C3)n1)CCCC2 (stereo unspecified)	-0.78
C=Cc1ccc(Cn2c(=O)n(-c3cccc(Cl)c3)c(=O)c3c4c(sc32)CN(C(C)=O)CC4)cc1	-2.2
CCCCNc1nc(Oc2ccc(=O)[nH]n2)nc(N(C)C)n1	-3
Cc1c(CNC2CCCCC2)c(C(=O)O)c(C)n1Cc1c(F)cccc1Cl	-0.42
Cc1csc2nc(COc3ccc(NC(=O)c4ccccc4F)cc3)cc(=O)n12	0.25
O=c1n(Cc2ccc(F)cc2)c2ccccc2c2nc(-c3ccccc3)nn12	-0.39
Cc1ccc2nc(-c3ccc(Cl)c(NC(=O)c4ccc(Br)o4)c3)oc2c1	-0.23
C[N+]1(C)CCCC(OC(=O)C(O)(c2ccccc2)c2ccccc2)C1 (stereo unspecified)	-0.61
C=CCCCCCCCCC(=O)[O-].C=CCCCCCCCCC(=O)[O-].[Zn+2]	0.29
COc1cccc(NC(=O)Nc2cc(-c3cn4cccnc4n3)ccc2C)c1	-1.7
Cc1ccccc1Nc1c(-c2ccc(O)cc2)nc2c(C)cccn12	-1.2
COc1cc2c(=O)c(S(=O)(=O)c3ccc(F)cc3)cn(Cc3ccccc3C)c2cc1OC	-1.6
O=C(O)CCn1cnc2onc(-c3ccccc3Cl)c2c1=O	-0.16
CCOc1ccc(NC(=O)Cn2c(=O)n(CCCS(=O)(=O)C3CCCCC3)c(=O)c3ccccc32)cc1	-0.91
Cc1cc(NC(=O)c2cc(-c3cccc(Cl)c3)on2)nn1Cc1ccc(Cl)cc1	-0.92
O=C(CC1C(=O)OCCN1Cc1ccccc1)Nc1cccc(Cl)c1 (stereo unspecified)	-0.52
COc1cc2c(cc1OC)C1(CCN(C(=O)c3ncccc3C)CC1)OCC2	-0.36
COc1cccc(Cn2c(NCc3ccc(C)cc3)nc3c2c(=O)n(C)c(=O)n3C)c1	-1.4
Cc1cccc(Cn2c(=O)n(CCCCC(=O)NCc3ccc4c(c3)OCO4)c(=O)c3ccccc32)c1	-0.84
CCCOc1ccc(-c2nc3ccc(Br)cc3c(=O)o2)cc1	0.14
CNC(=O)c1ccc(S(=O)(=O)NCc2nc(-c3ccc(C)cc3)no2)cc1	0.57
COc1ccc(-n2nc(C(=O)N3CCCC(C)C3)c3c4ccccc4n(C)c3c2=O)cc1 (stereo unspecified)	-0.79
COc1ccc(Cl)cc1N(C)C(=O)c1cc2c(=O)oc3ccc(C)cc3c2s1	0.59
CCC(=O)N1CCc2cc(S(=O)(=O)NC(Cc3ccccc3)C(=O)Nc3ccccc3C)ccc21 (stereo unspecified)	-1.2
CCCN(CCC)CCCNC(=O)C1CCC(CNS(=O)(=O)c2cccc3nsnc23)CC1 (stereo unspecified)	-0.23
COc1ccccc1N1CCN(C(=O)c2ccc(Nc3nc4ccccc4n4nnnc34)cc2)CC1	-0.6
CCOC(=O)c1ccc(NC(=O)CSc2nc(-c3ccc(OC)cc3)cc(C(F)(F)F)c2C#N)cc1	-16
COc1cc2cc(CN3CCNC(=O)C3)c(-c3cccc(Cl)c3)nc2cc1OC	1.4
CCOc1ccccc1NC(=O)Cc1coc2c(C)c(C)ccc12	-1.5

Shown bar-delimited: 14 of the compounds above
canonical_smiles | Bm FixLJ act
COc1ccccc1CNC(=O)CCn1c(=O)c2ccccc2n(CC(=O)Nc2cccc(Cl)c2)c1=O | 0.27
CN(C)c1nc2c(c(N3CC(O)C(Cc4ccncc4)C3)n1)CCCC2 (stereo unspecified) | -0.78
C=Cc1ccc(Cn2c(=O)n(-c3cccc(Cl)c3)c(=O)c3c4c(sc32)CN(C(C)=O)CC4)cc1 | -2.2
CCCCNc1nc(Oc2ccc(=O)[nH]n2)nc(N(C)C)n1 | -3
Cc1c(CNC2CCCCC2)c(C(=O)O)c(C)n1Cc1c(F)cccc1Cl | -0.42
Cc1csc2nc(COc3ccc(NC(=O)c4ccccc4F)cc3)cc(=O)n12 | 0.25
O=c1n(Cc2ccc(F)cc2)c2ccccc2c2nc(-c3ccccc3)nn12 | -0.39
Cc1ccc2nc(-c3ccc(Cl)c(NC(=O)c4ccc(Br)o4)c3)oc2c1 | -0.23
C[N+]1(C)CCCC(OC(=O)C(O)(c2ccccc2)c2ccccc2)C1 (stereo unspecified) | -0.61
C=CCCCCCCCCC(=O)[O-].C=CCCCCCCCCC(=O)[O-].[Zn+2] | 0.29
COc1cccc(NC(=O)Nc2cc(-c3cn4cccnc4n3)ccc2C)c1 | -1.7
Cc1ccccc1Nc1c(-c2ccc(O)cc2)nc2c(C)cccn12 | -1.2
COc1cc2c(=O)c(S(=O)(=O)c3ccc(F)cc3)cn(Cc3ccccc3C)c2cc1OC | -1.6
O=C(O)CCn1cnc2onc(-c3ccccc3Cl)c2c1=O | -0.16

(further entries)
SMILES	Bm FixLJ act
COc1cc(NC(=O)Cn2c(=O)n(-c3ccccc3)c(=O)c3c4c(sc32)CCCC4)cc(OC)c1	-1.1
CC1(C(=O)N2CC(O)C(Cc3ccc4ccccc4n3)C2)CCCCC1 (stereo unspecified)	-3
COC(=O)c1cc2oc3ccccc3c2n1CC(=O)Nc1ccc(OC)c(OC)c1	-1.6
CCn1c(=O)c(C(=O)Nc2cc(OC)c(OC)c(OC)c2)nc2ccccc21	-1.1
CCn1c(N)nc2cc(C(=O)N3CCN(Cc4ccccc4)CC3)cnc21	-1.7
CCOc1ccc(CN(CCc2ccc3c(c2)OCO3)Cc2cccc(OC)c2)cc1	0.89
CCC1C(=O)N(C)CCN1C(=O)c1cc(COc2ccccc2OC)[nH]n1 (stereo unspecified)	-0.45
CC(=O)N1CCN(c2ncccc2CNC(=O)c2cccc(O)c2C)CC1	0.06
CCC(=O)N1CCc2cc(S(=O)(=O)CCC(=O)N3CCN(c4cccc(C)c4)C(C)C3)ccc21 (stereo unspecified)	-0.98
O=C1CN(C(=O)c2ccc(S(=O)(=O)N3CCCC3)cc2)C(c2ccccc2)c2cc(Br)ccc2N1 (stereo unspecified)	-1.6
Cc1nc2sccn2c(=O)c1CCN1CCC(=C(c2ccc(F)cc2)c2ccc(F)cc2)CC1	-0.21
CCCN1C(=O)c2[nH]nc(-c3ccc(F)cc3)c2C1c1ccc(O)c(OCC)c1 (stereo unspecified)	-0.99
CCCCNC(=O)N1CCCN(C(=O)Cc2cccc(F)c2F)CC1	-0.03
CCOCCNC(=O)Cn1nc(Cc2ccc(OC)c(OC)c2)nc1C(C)N (stereo unspecified)	0.74
COc1cccc(OCc2nc3ccccc3n2Cc2ccccc2)c1	1.5
Cc1ccc(C)c(N2CCN(C(=O)CN3C(=O)COc4ccc(S(=O)(=O)N5CCC(C)CC5)cc43)CC2)c1	-0.6
CCC(C)Oc1cccc(CNC(=O)N2CCc3c(c(CO)nn3CC)C2)c1 (stereo unspecified)	-0.92
Cc1ccc(CC(=O)N(Cc2nc(-c3ccc(C)cc3)no2)C(C)C)cc1	-0.55
C=C[C@@]1(C)CC(=O)[C@@]2(O)[C@](C)(O1)[C@@H](OC(C)=O)[C@@H](O)C1C(C)(C)CC[C@H](O)[C@@]12C (stereo partly specified)	-1.3
CSc1nn(Cc2cccc(F)c2)c(N(C(C)=O)C(C)=O)c1S(=O)(=O)c1ccccc1	-0.69
CCN1CCN(C(=O)c2ccc3c(c2)N(Cc2cc(C)ccc2C)C(=O)c2ccccc2S3=O)CC1 (stereo unspecified)	-1.7
Cc1ccccc1Cn1c(SCc2ccc(C(=O)NC(C)c3ccccc3)cc2)nc2ccncc21 (stereo unspecified)	-4.4
CCc1ccccc1NC(=O)CN(c1ccccc1OC)S(=O)(=O)c1ccc(C)cc1	0.23
COc1ccc(C(=O)Nc2nc3nc(C)c(Cl)c(=O)n3[nH]2)cc1	-0.54
CCCCNC(=O)c1ccc2c(=O)n(Cc3ccc(OC)cc3)c(=O)[nH]c2c1	-1.5
CCOC(=O)c1nc(Nc2ccccc2C)c2ccccc2n1	-1.6
C[C@]12C=CC(=O)C=C1CCC1C3C[C@@H](O)[C@](O)(C(=O)CO)[C@@]3(C)C[C@H](O)[C@@]12F (stereo partly specified)	0.66
O=C(Nc1cc2c(cc1C(=O)c1ccccc1)OCCO2)c1ccc(Br)cc1	0.36
CC(C)c1csc(CCNC(=O)CSc2ccncc2)n1	-0.41
Cc1ccc(CN(C(=O)COc2ccc(Cl)cc2C)C2CCS(=O)(=O)C2)o1 (stereo unspecified)	-1.1
CCCNC(=O)N1CCC2(CC1)OCCc1cc(C(=O)NC(C)(C)C)sc12	-0.14
Cc1c(NC(=O)c2cc(-c3cccc(Cl)c3)on2)c(=O)n(-c2ccccc2)n1C	-1.5
CCc1nnc(CN(C)C(=O)Cn2nc(-c3ccccc3)n(CC)c2=O)o1	0.4
CCc1cc(NCc2ccc(OC)cc2OC)n2nccc2n1	-1.6
Cn1cc(CCCNC(=O)Nc2ccc(OCC3CCCCO3)cc2)cn1 (stereo unspecified)	0.02
CC(C)c1cc(C(=O)NC(C)c2ccccc2)no1 (stereo unspecified)	-1.2
O=C(CCN1CCCC1=O)NC1COCC1Cc1ccncc1 (stereo unspecified)	-1
O=C(Cn1ncc2c3ccccc3n(Cc3ccc(F)cc3)c2c1=O)NCCCN1CCCCC1	-1.3
Cc1cccc(NC(=O)Cn2cc(C(=O)C3CCCCC3)c3ccccc32)c1C	-2.8
COc1cc2c(-c3ccc(C)cc3)nc3c(c(C)nn3-c3ccccc3)c2cc1OC	0.04
CC1CN(C(=O)c2ccc3nc(C(F)(F)F)[nH]c3c2)CC[C@]1(C)O (stereo partly specified)	-1.1
CC(C)c1ccc(NC(=O)C2(C)Cc3ccccc3C(=O)O2)cc1 (stereo unspecified)	-2.5
CCOc1c(CN(C)C(=O)c2ccc(-c3cnn(C)c3)cc2)cccc1OC	0.23
CCCn1c(SCC(O)c2ccccc2)nc2ccccc21 (stereo unspecified)	-0.82
O=C1Nc2ccccc2NC12CCN(Cc1cnn(-c3cccc(F)c3)c1)CC2	-2
COc1cccc(CN2C(=O)c3ccccc3Sc3ccc(C(=O)NCc4ccccc4)cc32)c1	0.46
COC(=O)CNC(c1ccccc1)c1cc(Br)ccc1NC(=O)c1ccccc1 (stereo unspecified)	1.8
COc1ccc(C(=O)/C=C/c2cn(CC(O)CN3CCCCCC3)c3ccccc23)cc1OC (stereo unspecified)	-6.1
O=C(O)CN1CCN(Cc2cc(F)ccc2Cl)C2CS(=O)(=O)CC21 (stereo unspecified)	0.99
CC1CCCc2sc3nc(SCC(=O)c4ccc(Br)cc4)nc(N)c3c21 (stereo unspecified)	0.3
O=C(c1cn2ccsc2n1)N1CCC(n2c(=O)[nH]c3ccccc32)CC1	0.67
COc1ccc(CNC(=O)C2CCCN(Cc3ccco3)C2)c(F)c1F (stereo unspecified)	-0.15
O=C(Nc1cccc(C(F)(F)F)c1)c1cc(-c2ccc(Cl)cc2)on1	-1.1
Cc1nnnn1CCCN1CCC(NC(=O)c2ccccc2)C(O)C1 (stereo unspecified)	-1.5
CCOC(=O)c1c(C)oc2ccc(N(C(=O)Oc3ccccc3)S(=O)(=O)c3ccccc3)cc12	0.37
CC(C)N1C[C@]23C=CC(O2)C(C(=O)NCCCc2csc(N)n2)C3C1=O (stereo partly specified)	-1.3
Cn1c(=O)n(C)c2cc(NS(=O)(=O)c3ccc(F)cc3)c(NCc3ccccc3)cc21	-0.56
CNC(=O)c1ccc(S(=O)(=O)NCc2nnc3n2CCC3)cc1	-1.2
CCOC(=O)C1=C(C)NC(=O)NC1c1cn(-c2ccccc2)nc1-c1ccc(OC(C)C)cc1 (stereo unspecified)	-0.42
CCOC(=O)c1cccc(NC(=O)C(Cc2ccccc2)NS(=O)(=O)c2cccc3nsnc23)c1 (stereo unspecified)	0.39
(listing goes on)
SMILES	Bm FixLJ act
CCCc1nc(C)c2c(=O)[nH]c(-c3cc(S(=O)(=O)N4CCN(CC)CC4)ccc3OCC)nn12	-1.4&0.08
COc1ccc(-c2cc(C(F)(F)F)n3nc(C(=O)NCC45CC6CC(CC(C6)C4)C5)cc3n2)cc1OC	0.12
Cc1cc(Br)ccc1NC(=O)C1CCN(S(=O)(=O)c2cccc3nsnc23)CC1	0.52
CCOC(=O)c1[nH]c2c(c1Cc1ccccc1)C(=O)CC(c1ccccc1)C2 (stereo unspecified)	0.34
